High-throughput results: PubChem BioAssay, National Center for Advancing Translational Sciences (NCATS)
TRPML1 blocker: blocks the human TRPML1 channel. TRPML1-inducible cells, Ca2+ dye fluorescence, FDSS; hits give low values; inhibition of EC80 agonist-evoked calcium signal. activity change, negative = inhibition, % (no concentration beside the values). AID 624415. Q9GZU1. 390,000 compounds, 0.02% hits; in the data active means activity change below about -50%; inconclusive means about -30% to -50%; inactive means above about -30%;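 note: stimulus is agonist 54-4 at its EC80 concentration; % is set by controls: 0 for no effect and ±100 for the full control effect; compound concentration not given in the record; the text of the record puts the active cut at -80%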
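Tet-induced TRPML1-DL cells loaded with Ca8 no-wash calcium dye were read kinetically on FDSS. Compound addition was followed by EC80 agonist 54-4 (4 uM final); inhibition was read over 110 s.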
Menin MLL FP FL: inhibitors of human menin-MLL interaction, wild-type MLL peptide; Fluorescence polarization, fluorescein-MLL peptide displacement from menin; FP activity change, % at 61.4 µM; 290,000 tested, under 10 active; AID 1766; inconclusive = falling polarisation curve, or a change in total fluorescence; inactive = total fluorescence flat and polarisation flat or rising; no compound was filed as active; the % refers to the polarisation; negative = inhibition;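 note: % of control where 0% means no effect; inhibitors lower the polarisation; unlabelled MLL peptide was the positive control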
TRPV1 potentiator: human TRPV1 potentiation; Q8NER1; TRPV1-expressing cells, Fluo-8 calcium influx, capsaicin EC20 potentiation; host cell line not named in the record; control for the full effect not named in the record; potentiation, % at 8.33 µM; 320,000 compounds, 0.02% hits; AID 540277; active means potentiation above 80%; inconclusive means 30% to 80%; inactive means below 30%; note: 0% is about no effect
Target sequence (Q8NER1 whole entry, looked up): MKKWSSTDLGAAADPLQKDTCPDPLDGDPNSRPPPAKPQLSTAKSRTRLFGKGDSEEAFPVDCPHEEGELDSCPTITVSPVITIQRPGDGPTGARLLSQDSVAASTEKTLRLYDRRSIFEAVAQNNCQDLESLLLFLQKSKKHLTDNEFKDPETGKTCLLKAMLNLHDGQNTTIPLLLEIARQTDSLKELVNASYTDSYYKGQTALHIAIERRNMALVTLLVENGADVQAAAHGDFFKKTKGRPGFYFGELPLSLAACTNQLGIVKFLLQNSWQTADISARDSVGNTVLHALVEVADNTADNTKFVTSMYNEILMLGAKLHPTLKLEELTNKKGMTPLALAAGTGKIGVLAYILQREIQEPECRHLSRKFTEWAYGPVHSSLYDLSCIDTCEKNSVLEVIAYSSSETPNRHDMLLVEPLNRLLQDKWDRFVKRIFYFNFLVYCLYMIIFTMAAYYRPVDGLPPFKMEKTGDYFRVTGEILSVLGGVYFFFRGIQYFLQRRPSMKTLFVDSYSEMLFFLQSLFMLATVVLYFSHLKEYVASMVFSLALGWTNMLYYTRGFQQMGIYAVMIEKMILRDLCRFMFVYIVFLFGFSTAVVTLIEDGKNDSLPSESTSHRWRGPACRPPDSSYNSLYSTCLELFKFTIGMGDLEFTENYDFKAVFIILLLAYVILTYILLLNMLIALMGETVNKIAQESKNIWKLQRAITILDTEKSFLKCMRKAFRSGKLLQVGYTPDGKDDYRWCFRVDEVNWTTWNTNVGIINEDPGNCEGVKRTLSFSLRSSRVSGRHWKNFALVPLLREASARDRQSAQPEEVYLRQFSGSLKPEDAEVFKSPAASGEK
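Fluo-8 calcium influx in TRPV1-expressing cells, kinetic read (ex 480/em 520 nm). Compound added and read 3 min for agonist activity, followed by capsaicin at EC20 final and 2 min further read for enhancement.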
Sfp PPTase inh: blocks B. subtilis Sfp PPTase activity | Q9F4F7 | Biochemical Sfp PPTase activity, qHTS | Potency, µM, without a hit: max response, negative = inhibition, usual class: inhibitors | 310,000 compounds, 3.5% hits; active = well fitted inhibition curve with a large enough effect; inconclusive = small, poorly fitted or top-dose-only effect, or another doubt; inactive = no such curve, though single readings can be large or run the other way;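 note: the enzyme is Sfp with the accession as filed and its product quenches rhodamine fluorescence; potency is the fitted concentration of half-maximal effect; 0% = enzyme reaction without inhibitor and -100% = no enzyme wells; top concentration of the series not given in the record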
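Fluorescence-quenching assay: 15 nM Sfp-PPTase preincubated 15 min at room temperature with compound, then 5 uM rhodamine-CoA and 12.5 uM BHQ-2-labelled YbbR peptide added. Fluorescence (ex 525/em 598 nm) read at start and after 30 min; difference gives rate.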
ClpP mod: qHTS Assay for Activators of ClpP. ATP-dependent Clp protease proteolytic subunit (Bacillus subtilis (strain 168)), P80244. purified B. subtilis ClpP, FRET peptide cleavage, 20 min. Potency, µM (top dose mostly 57.5 µM), for inactives: at the highest dose activity change, negative = active. 340,000 compounds, 1.9% hits. AID 651965, 2013; active = well fitted falling curve with a large enough effect; inconclusive = small, poorly fitted or top-dose-only effect; inactive = no such curve, though single readings can be large or run the other way; note: potency is the fitted concentration of half-maximal effect; the source files actives as falling curves though it sought activators and does not explain the sign; nearly all actives have a fitted effect of over 65% in size; many hits overshoot -100%
Target sequence (P80244 whole entry, looked up): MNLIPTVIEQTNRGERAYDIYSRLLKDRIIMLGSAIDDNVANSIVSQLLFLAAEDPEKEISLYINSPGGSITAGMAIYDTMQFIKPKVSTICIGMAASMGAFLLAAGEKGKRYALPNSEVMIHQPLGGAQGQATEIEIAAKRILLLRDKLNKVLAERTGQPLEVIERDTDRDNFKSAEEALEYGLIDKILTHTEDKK
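ClpP 10 microg/mL final, pH 8 Tris/KCl buffer with BSA, glycerol, Tween-20; compound pinned in; FRET-FV substrate; RT 20 min; Ex320/Em430; ΔFRET vs ADEP 5.8 microM, DMSO, no enzyme.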
PINK1 modulator: changes PINK1 expression | 410,000 compounds, 0.2% hits | AID 624263 | Potency, µM (doses to about 76.6 µM), without a hit: at the top dose activation (PINK1 increase), most hits filed as activators | PINK1 immunofluorescence, high-content cytometry, 24 h; active = well fitted activation curve with a large enough effect; inconclusive = small, poorly fitted or top-dose-only effect; inactive = flat fitted curve, though single readings scatter; cell line not stated here;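 note: potency is the fitted concentration of half-maximal effect; % of control where 0% means no effect; nearly all actives have a fitted effect of over 65% in size; a mitochondrial uncoupler was the plate control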
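Cells are seeded, rested 12 hours, then given compound at five concentrations or DMSO for 24 hours. After fixation, blocking and antibody staining, PINK1 amount and mitochondrial localization are scored; CCCP serves as control.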
TRPML1 agonist: human mucolipin-1 channel agonism | activation, % (test concentration not listed) | TRPML1-expressing cells, Ca2+ dye fluorescence, FDSS; host cell line not named in the record; reference of the full effect not given here | Q9GZU1 | AID 624414 | 410,000 compounds, 0.12% hits; in the data active = activation above about 50%; inconclusive = about 30% to 50%; inactive = below about 30%; note: 0% is about no effect; the text of the record puts the active cut at 80%
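Cells: TRPML1-DL, 1X Tet inducer, ~16 h at 37 degrees C/5% CO2. Dye: ABD Ca8 no-wash + quencher, 45-90 min RT. Read: 10 s baseline, compound add, 110 s agonist phase; 54-4 EC80 (4uM final), 110 s antagonist phase.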
An asterisk follows results filed as active; ? = inconclusive; . = not tested or not shown; [ ] = remark or other dose.

SMILES	TRPML1 blocker	Menin MLL FP FL	TRPV1 potentiator	Sfp PPTase inh	ClpP mod	PINK1 modulator	TRPML1 agonist
c1ccc2c(c1)nc1n2C2(N3CCOCC3)CCCC2C1N1CCOCC1 (centres undefined)	8.1	?	-8.3	-16.1%	1.5%	15.5%[38.3 µM]	-0.1
CCN(CC)C(=O)[C@H]1CC(CC(=O)NCCCn2ccnc2)C(=O)N2CCc3c([nH]c4ccc(OC)cc34)[C@]12C (some centres undefined)	19.1	.	.	.	-3.1%	0.4%	-0.8
CC1CCc2c(sc3ncn(CC(=O)N=Nc4c(O)[nH]c5ccccc45)c(=O)c23)C1 (centres undefined)	-9.5	2.6	3.9	-9.8%	1.2%	0.7%	-0.4
Cc1cc(C(=O)Nc2ccccc2Cl)c2ccccc2n1	9.4	-0.6	12.3	-2.7%	0.6%	2.3%	-0.3
COc1ccc(S(=O)(=O)Nc2cc(-c3cn4ccccc4n3)ccc2C)cc1	-4.0	.	.	.	4.4%	6.2%	0.1
COc1cc(NS(=O)(=O)c2ccc(N/C=C\C(=O)c3ccc(C)cc3)cc2)nc(OC)n1	-3.1	.	.	.	-6.4%	-0.2%	0.0
CCN(CC(=O)N1CCOCC1)S(=O)(=O)c1cc(Cl)ccc1Cl	-11.0	6.3	-6.2	9.2%	31.6µM*	-1.9%	0.0
CCn1c(SCC(=O)Nc2ccccc2)nnc1-c1cccs1	.	6.8	8.2	7.2%	-1.2%	2.1%	.
Nc1[nH]ncc1S(=O)(=O)c1ccccc1	8.5	3.8	4.2	14.4%	.	1.5%	-0.5
O=C(c1ccc(S(=O)(=O)Nc2ccccc2)cc1)N1CCC1	-7.5	.	3.8	.	.	-1.6%	0.3
CCOC(=O)NC(Nc1ccc(S(N)(=O)=O)cc1)(C(=O)OCC)C(F)(F)F (centres undefined)	-7.3	4.9	?	9.3%	-1.1%	0.9%	0.0
Clc1ccc2nc(-c3ccccc3)c(CN3CCOCC3)n2c1	50.2	-2.5	-3.2	4.5%	-22.7%	-1.5%[38.3 µM]	-0.1
O=C(COc1ccc(Cl)cc1Cl)N/N=C/c1ccc(OC2OC(CO)C(O)C(O)C2O)cc1 (centres undefined)	-0.6	5.1	8.9	2.0%	0.1%	0.8%	-0.6
Clc1ccc(C(c2nnnn2C2CCCCC2)N(Cc2cccnc2)Cc2ccco2)cc1 (centres undefined)	-28.5	4.4	-12.6	7.2%	-0.9%	9.9%	1.5
CCN(CC)C(=S)SCC(=O)Nc1nc(=O)c2ccccc2s1	5.5	5.8	3.3	?	0.3%	0.2%	0.1
O=C(CSc1ccccc1C(=O)N1CCCCC1)NCC1CCCCC1	4.1	-2.4	-4.1	7.9%	-1.7%	0.6%	-0.5
Cc1c(Cl)cccc1-n1ncc(C(=O)N2CCOCC2)c1C1CCN(C(=O)OC(C)(C)C)CC1	6.0	.	.	.	-1.1%	0.9%	0.4
COc1ccc(C(=O)Nc2cccc(C(=O)OCc3cc(=O)n4c5c(sc4n3)CCCC5)c2)cc1	2.8	.	.	.	-6.2%	-0.8%	0.7
OC[C@H]1OC(Nc2ccc(N=Nc3ccccc3)cc2)[C@@H](O)[C@@H](O)[C@@H]1O (some centres undefined)	20.1	2.4	29.9	-2.2%	-0.5%	3.9%	3.0
COc1ccc(OC)c(CCNC(=O)Cc2ccc(NC3=NC4CS(=O)(=O)CC4S3)cc2)c1 (centres undefined)	-8.5	3.5	3.2	17.8%	0.3%	0.3%	-0.7
O=C(Nc1cccc(F)c1)C1CCCN(c2cnccn2)C1 (centres undefined)	1.4	4.6	-9.8	9.2%	-6.1%	2.3%	0.5
CCCn1c(=N)c(C(=O)NCC2CCCO2)cc2c(=O)n3cc(C)ccc3nc21 (centres undefined)	29.6	.	.	.	4.6%	4.1%	-0.4
Clc1ccc(-c2nnc3n2CCCS3)cc1	2.1	-1.2	-4.1	3.1%	-3.7%	0.5%	-0.7
CCCc1cc(N2CCN(c3cc(Cl)ccc3C)CC2)n2cnnc2n1	33.9	.	.	.	0.4%	1.0%	3.2
O=Cc1coc2c(ccc3ccccc32)c1=O	.	-9.8	13.3	-9.6%	.	.	.
O=C(c1cccc(F)c1)N1CCC2(CC1)CN(c1ccncc1)C2	.	-2.3	.	-2.1%	.	-0.9%	.
CCc1ccc(C2=CC(c3cccc(Br)c3)n3nnnc3N2)cc1 (centres undefined)	-10.9	.	.	.	-2.1%	9.3%	0.5
CN(CCO)CCOCCOc1cccc2ccccc12	8.2	1.7	-13.8	?	?	0.3%	0.0
C(=C\c1ccco1)/c1nc2ccccc2[nH]1	5.5	?	-16.4	39.8µM*	?	10.1%	0.2
N#CCc1cnc2ccccc2n1	-5.9	?	-1.8	?	.	0.6%	-0.1
CCOC(=O)c1ccccc1NC(=O)CCOc1ccccc1	-11.8	.	.	.	-20.9%	1.0%	0.7
O=[N+]([O-])c1cc(F)c(N2CCOCC2)cc1N1CCCCC1	22.2	2.1	-15.0	8.9%	-0.7%	-4.0%[38.3 µM]	3.5
Cc1cc(C)c(C#N)c(SCC(O)COc2ccc(Br)cc2)n1 (centres undefined)	16.2	-2.7	5.4	-1.5%	.	5.5%	0.5
O=C1CN2CCC1C/C2=C\c1ccnc2c(Cl)cccc12 (centres undefined)	-10.8	1.7	19.6	5.2%	-2.8%	-0.2%	-0.1
CC1C2CCC3C4CC=C5CC(N(C)C)CC[C@@]5(C)C4CC[C@@]32CN1C (some centres undefined)	.	1.0	.	7.6%	.	-0.1%	.
NC(CSCc1cccc(Br)c1)C(=O)O (centres undefined)	-12.0	-2.1	-1.3	-16.4%	0.1%	1.8%	1.1
Cn1c(N/N=C2\CCCc3ccccc32)nc2c1c(=O)n(Cc1ccc(F)cc1)c(=O)n2C	-22.4	-0.1	-15.1	19.2%	?	5.2%	0.7
Nc1nc(NCCO)nc(NCC2CCCO2)c1[N+](=O)[O-] (centres undefined)	31.0	.	-1.3	12.2%	-2.5%	-0.1%	0.3
CCOC(=O)N1CCN(C(=O)COc2cccc3c2CCN(Cc2ccccc2C)C3=O)CC1	-0.7	-2.2	1.7	4.5%	-11.0%	0.1%	-0.3
CCOc1ccc(NC(=O)C/C(N)=N/O)cc1	10.5	5.0	-2.0	-7.2%	-1.5%	-1.3%[38.3 µM]	0.0
COc1ccc(OCCOCCN2CCc3ccccc3C2)cc1	18.4	0.9	9.1	0.1%	-0.1%	.	-0.2
Cc1ccc2nc3c(cc(C#N)c(=N)n3Cc3cccnc3)c(=O)n2c1	.	?	-0.9	18.9%	.	.	.
CC(OC(=O)c1cccc(NS(C)(=O)=O)c1)C(=O)Nc1ccc(N2CCOCC2)cc1 (centres undefined)	-2.9	2.7	3.8	17.5%	0.6%	3.7%	-0.6
CCn1cc(CN2CCCC(C(=O)Nc3ccc(-c4cscn4)cc3)C2)cn1 (centres undefined)	-6.5	.	1.8	15.2%	?	-1.7%	0.0
COc1ccc(C(N)c2csc(NC(=O)Nc3ccccc3C(C)(C)C)n2)cc1 (centres undefined)	.	.	.	.	3.2%	5.7%	0.1
CCc1c(C2(O)CCCCC2)[nH]c2cc(C(F)(F)F)ccc12	11.9	0.7	-19.4	39.5%	?	-2.2%	3.0
COc1ccc(CNc2ncc(-c3ccccc3)n2C)cc1	8.0	-0.5	-18.8	?	-26.0%	-0.4%	-0.7
C/C(Cc1ccccc1)=N\NC(=O)c1cccnc1	19.2	2.3	-8.0	1.6%	0.4%	6.0%	-0.3
Cc1ccc(CN2C(=O)CCC2(C)c2nnnn2-c2ccc3c(c2)OCCO3)cc1 (centres undefined)	.	.	.	.	0.8%	-0.9%	-0.7
CCCCn1nnnc1C1(C)CCC(=O)N1CCc1c[nH]c2ccccc12 (centres undefined)	.	.	.	.	-2.5%	-0.1%	-0.1
More structures follow.
SMILES	TRPML1 blocker	Menin MLL FP FL	TRPV1 potentiator	Sfp PPTase inh	ClpP mod	PINK1 modulator	TRPML1 agonist
CCc1ccc(OC(=O)c2cccnc2)cc1	73.9	-2.2	-16.0	2.4%	-2.1%	0.1%	1.6
COC(=O)c1ccc(CNC(=O)C2CCC(=O)N(CCc3ccccc3)C2)cc1 (centres undefined)	-20.6	.	-2.1	10.7%	-0.7%	-0.7%	1.0
Cc1ccc(NC(=O)c2oc3ccccc3c2C)c([N+](=O)[O-])c1	19.0	6.1	6.1	6.2%	.	3.4%	0.9
COC(=O)C(NC(=O)CCc1c(C)nc2cc(-c3cccc(F)c3)nn2c1C)C(C)C (centres undefined)	-8.1	.	.	.	3.8%	0.0%	-0.2
COc1ccc(NC(=O)CSC2=NN3CCCC(=O)N=C3S2)c(OC)c1	18.2	-0.2	-2.8	12.2%	-2.3%	0.2%	-0.3
NCC(c1ccccc1)c1c[nH]c2ccccc12 (centres undefined)	7.5	0.7	18.7	-4.2%	.	0.1%	-0.2
CCCC[C@@H]1CNC(=O)C(=O)N1CCCC	.	.	.	.	-0.6%	-0.7%	-0.2
O=C(c1cnc2ccccn2c1=O)N1CCCc2ccccc21	-17.1	1.6	13.8	24.3%	-0.9%	-4.4%[38.3 µM]	0.3
CC(=O)Oc1ccc(/C=C(\NC(=O)c2ccco2)C(=O)Nc2ccc(C(C)=O)cc2)cc1	-4.6	2.8	12.2	24.9%	.	-1.8%	-0.7
CN(C)Cc1c(C(=O)N/N=C/CCc2ccccc2)nnn1-c1nonc1N	20.5	-0.1	3.4	1.5%	.	-0.4%	0.1
COc1ccc(C(CNC(=O)c2oc3ccccc3c2C)N2CCCC2)cc1 (centres undefined)	52.8	.	26.0	.	-2.2%	0.7%	2.3
COc1ccccc1N1CCN(/N=C/c2cccc(OC)c2OC)CC1	2.1	-0.5	-2.0	4.7%	-4.4%	-2.5%	2.5
O=C(NCc1ccccc1)C(c1cccnc1)N(Cc1ccco1)C(=O)c1ccccn1 (centres undefined)	-8.8	2.1	0.0	7.4%	0.8%	-0.2%	-0.3
CCC(C)NC(=O)CCn1c(=O)c2cccn2c2ccc(F)cc21 (centres undefined)	23.3	0.7	-3.9	6.0%	2.1%	2.2%	-0.9
